Screening results deposited in PubChem BioAssay by National Center for Advancing Translational Sciences (NCATS).
HPGD block: blocks human HPGD enzyme activity; Potency, µM, inactives show at the highest dose activity change, negative = inhibition, most hits filed as inhibitors; P15428; 150,000 compounds, 4.3% hits; purified HPGD, NADH fluorescence kinetic, PGE2 substrate; active = well fitted inhibition curve with a large enough effect (not every such curve was filed as active); inconclusive = small, poorly fitted or top-dose-only effect, or another doubt; inactive = no such curve, though single readings can be large or run the other way;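 note: top concentration of the series not given in the record; plate controls included wells without enzyme; inactives centre near -10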
Target sequence (P15428 whole entry, looked up): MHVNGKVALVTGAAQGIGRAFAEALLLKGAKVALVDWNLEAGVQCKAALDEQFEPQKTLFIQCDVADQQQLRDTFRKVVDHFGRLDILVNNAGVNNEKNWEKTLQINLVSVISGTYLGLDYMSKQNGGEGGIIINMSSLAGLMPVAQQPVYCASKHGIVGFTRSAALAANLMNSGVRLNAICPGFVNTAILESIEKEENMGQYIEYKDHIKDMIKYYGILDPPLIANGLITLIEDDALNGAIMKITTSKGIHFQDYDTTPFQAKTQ
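NADH formation kinetics: reaction with 30 uM PGE2 and 1 mM NAD+ (final), 20 nM enzyme, Tris-HCl pH 8 with Tween 20, after 15 min compound preincubation at room temperature. Fluorescence change, last versus first of five reads.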
Numbers without * were called inactive; ? = inconclusive. % is set by controls: 0 for no effect and ±100 for the full control effect; potency is the fitted concentration of half-maximal effect.

cpd	compound	HPGD block
1	NS(=O)(=O)c1ccc(CCNC(=O)CSc2nc3ccsc3c(=O)n2CC(=O)O)cc1	-14%
2	Cc1cc(C)c(NC(=O)COc2nncc3ccccc23)c(C)c1	-7%
3	COc1c(C)cc(Br)cc1C(=O)O	-6%
4	CCOC(=O)C1CCN(C(=O)CN(Cc2ccccc2)S(C)(=O)=O)CC1	0%
5	O=C(CCSCCc1ccccn1)Nc1c(F)c(F)c(F)c(F)c1F	-8%
6	CCOC(=O)Cn1cnc2c(C#N)c3n(c2c1=O)CCCCC3	-20%
7	CN1CCC(CNC(=O)c2ccc(Cc3nc4ccccc4[nH]3)cc2)CC1	-7%
8	CCn1ncc(/C=C/C(=O)c2ccccc2)c1C	?

Carrying on:
cpd	compound	HPGD block
9	CC1(C)CC(=O)C=C(N2CCCC2)C1	?
10	CC1(C)CC(CCNC(=O)c2ccco2)CC(C)(C)N1	-14%
11	CCOC(=O)C1Oc2ccccc2C(c2ccc(OC)cc2)=C1C(=O)OC (configuration not stated)	-14%
12	COc1ccc(C(=O)NCCN2CCCC2)cc1OC	-10%
13	CCCOc1ccc(C(C)(O)CN2CCOCC2)cc1 (configuration not stated)	-8%
14	CC(C)Nc1nc(Oc2cccc(Cl)c2Cl)cc(C(F)(F)F)n1	?
15	Cc1ccc(-n2nc3c(c2NC(=O)c2ccc(S(=O)(=O)N4CCOCC4)cc2)CSC3)c(C)c1	-2%
16	Nc1nc(SCC(=O)N2CCCC2)[nH]c(=O)c1-c1ccccc1	-8%

The list goes on.
cpd	compound	HPGD block
17	NC(=O)c1ccc(Br)c(S(=O)(=O)N2CCCCC2)c1	-1%
18	N#Cc1c(-c2ccccc2)cc(C2CC2)nc1N	?
19	Cc1cc(C(F)(F)F)n2nc(-c3cnn(C)c3C(F)(F)F)cc2n1	-15%
20	COc1cccc(-n2nnc3c(=O)n(Cc4ccc(Cl)cc4)cnc32)c1	-9%
21	CC(NC(=O)CN1C(=O)COc2ccccc21)c1ccccc1 (configuration not stated)	-14%
22	COc1cccc(C(=O)CSc2nnc(COc3cccc4cccnc34)o2)c1	-29%
23	CCOC(=O)N1CCN(c2c(N3CCc4ccccc4C3)c(=O)c2=O)CC1	-30%
24	CCCCN(C(=O)CSc1nnc(-c2ccccc2OC)n1C)c1c(N)n(Cc2ccccc2)c(=O)[nH]c1=O	-9%

Next section
cpd	compound	HPGD block
25	C[N+]1(C)C[C@@H](O)C[C@@H]1C(=O)[O-]	-6%
26	COc1ccc(-c2sc(NC(=O)c3ccc(C)cc3)nc2-c2ccc([N+](=O)[O-])cc2)cc1	-8%
27	COc1cc(/C=N/n2cnnc2)ccc1OCCSc1ccc(C)cc1	-26%
28	CCOc1ccc(NC(=O)CN2CCN(CC(=O)c3ccc(OC)c(OC)c3)CC2)cc1	-11%
29	Cc1occc1-c1nnc(SCC(N)=O)n1Cc1ccccc1	-4%
30	CC(C)[C@](N)(C(=O)O)c1ccccc1	-5%
31	Cc1ccc2nc(C)c(C(=O)N/N=C/c3ccccc3[N+](=O)[O-])cc2c1	-12%
32	O=C(/C=C/c1ccccc1Cl)NCCc1ccccc1	16µM*

The list goes on:
cpd	compound	HPGD block
33	CCCC(=O)Nc1cc(=O)[nH]c2ncnn12	-8%
34	CCOC(=O)C1CCN(C(=O)c2ccccc2NS(=O)(=O)c2ccc(F)c(F)c2)CC1	-7%
35	Cc1ccc(NC(=S)NCc2cccs2)cc1	28µM*
36	CCN(CC)CCCN(C(=O)c1cccs1)c1nc(-c2ccc(OC)cc2)cs1	-6%
37	CCN(CC)CCCNC(=O)c1cc(Sc2nnc(C)s2)nc2ccccc12	28µM*
38	COc1ccc(CCNC(=O)C2CCN(S(=O)(=O)N3CCCCCC3)CC2)cc1OC	-7%
39	CCn1cc(C(=O)NCc2ccc3c(c2)OCO3)c(=O)c2cc(S(=O)(=O)N(C)C)ccc21	?
40	CC(C)(OC1OC(CO)C(O)C(O)C1O)[C@H]1Oc2ccc3ccc(=O)oc3c2[C@H]1O (some centres not stated)	?

Additional entries follow.
cpd	compound	HPGD block
41	CCOC(=O)c1c(C)nc2c(c1-c1ccccc1)C(=O)c1ccccc1-2	-4%
42	O=C(CSc1nnc(-c2ccccc2)o1)Nc1ccccc1F	-18%
43	CC(C)OCCCn1c(=S)[nH]c2ccc(N3CCOCC3)cc2c1=O	?
44	Cc1ccc(CNC(=O)C2CCCN(S(C)(=O)=O)C2)cc1 (configuration not stated)	2%
45	CC1(C(=O)NC2CCCCCCC2)CCC(=O)N1Cc1cccnc1 (configuration not stated)	-1%
46	CC(C(=O)Nc1cccnc1)N1C(=O)C2C3C=CC(C3)C2C1=O (configuration not stated)	-16%
47	Cc1noc(C(=O)N2CCN(c3ccc(F)cc3)CC2)c1Cl	-4%
48	CCOc1ccccc1NC(=O)C(OC(=O)c1cc(C)oc1C)c1ccccc1 (configuration not stated)	-6%

(cont.)
cpd	compound	HPGD block
49	COC(=O)Cn1c(=N)n(CCN2CCCCC2)c2ccccc21	2%
50	O=C(CCOc1ccccc1)Nc1ccc(S(=O)(=O)N2CCCC2)cc1	-9%
51	C=C[C@@H](C)[C@](C)(O)c1ccccc1	-8%
52	CCOc1ccc(NC(=O)/C(=C\c2ccc(OC(C)=O)c(OC)c2)NC(C)=O)cc1	-14%
53	Cc1sc2nc(CN3CCOCC3)nc(NS(=O)(=O)c3ccc4c(c3)OCCO4)c2c1C	-1%
54	Cc1ccccc1N(CC(=O)NC1CCCC1)C(=O)c1oc(C(C)(C)C)cc1C	-24%
55	Cc1ccc(NC(=O)c2cnn(C)c2)cc1[N+](=O)[O-]	1%
56	Cc1ccc(OCCCC(=O)Nc2ccccc2C(F)(F)F)cc1	-9%

4 compounds from above, ordered by the number in HPGD block, descending.
# | Structure | HPGD block
49 | COC(=O)Cn1c(=N)n(CCN2CCCCC2)c2ccccc21 | 2%
51 | C=C[C@@H](C)[C@](C)(O)c1ccccc1 | -8%
50 | O=C(CCOc1ccccc1)Nc1ccc(S(=O)(=O)N2CCCC2)cc1 | -9%
52 | CCOc1ccc(NC(=O)/C(=C\c2ccc(OC(C)=O)c(OC)c2)NC(C)=O)cc1 | -14%

(continued)
cpd	compound	HPGD block
57	CCCC(=O)O[C@H]1C[C@@H](C)N(C(=O)c2ccccc2)c2ccc(C)cc21	-15%
58	O=C(COC(=O)c1ccc(Cl)c(S(=O)(=O)N2CCN(c3ccc(F)cc3)CC2)c1)Nc1cccc(Cl)c1	-7%
59	COC(=O)CSc1nc2ccccc2o1	-9%
60	Oc1ccccc1C=NC1=NN(c2cccc(C(F)(F)F)c2)CC1	-20%
61	O=C(NCc1ccccc1)C1CCN(S(=O)(=O)c2cc([N+](=O)[O-])ccc2Cl)CC1	-10%
62	Cc1c(NC(=O)Cn2[nH]c(=O)c3ccccc3c2=O)c(=O)n(-c2ccccc2)n1C	-14%
63	O=C(Nc1ccc2oc(-c3ccc(F)cc3)nc2c1)c1ccccc1F	?
64	COc1ccc(CCn2c(-c3ccco3)nc3nc4ccccc4nc32)cc1	?

(further entries)
cpd	compound	HPGD block
65	O=C(CCSc1ccccc1)Nc1ccccc1C(=O)N1CCCC1	-5%
66	C=CCn1c(NCc2ccc(N(C)C)cc2)nc2ccccc21	-12%
67	COC(=O)c1ccc2c(=O)n(CCCCCC(=O)N3CCN(c4ccccc4)CC3)c(=O)[nH]c2c1	-21%
68	Cc1ccc(S(=O)(=O)Nc2ccc(=O)n(Cc3ccc(Cl)c(Cl)c3)c2)cc1	-22%
69	COc1ccc2c(c1)c(=O)c(C(=O)c1ccc(C)cc1)cn2CC(=O)Nc1ccc(F)cc1	-4%
70	O=C(Cn1c(C(F)(F)F)nc2ccccc21)N1CCCC1	-4%
71	Cc1ccc(C)c(N2CCN(c3nnnn3-c3ccccc3)CC2)c1	-6%
72	CC(NS(=O)(=O)c1cccc(Cl)c1)C(=O)Nc1ccc(-c2nc3ccccc3s2)cc1 (configuration not stated)	?

(list continues)
cpd	compound	HPGD block
73	Nc1nc2nc(Cl)[nH]c2c(=O)[nH]1	-4%
74	COc1cc(SC)ccc1C(=O)Nc1ccccc1C#N	-7%
75	COc1cc(C2CC(=O)NC3=C2C(=O)CC(C)(C)C3)cc(OC)c1O (configuration not stated)	1%
76	Cc1cc(SCC(=O)NN=C2CCN(C(C)C)CC2)c(C)cc1Br	25µM*
77	COc1cccc(CC(=O)N2CCc3nc(-c4ccc(OC)cc4C)c4c(c3C2)CO[C@@H](c2ccccc2)C4)c1	-11%
78	Oc1cccc(-c2nc3c4c(ncn3n2)-c2ccccc2CC42CCCC2)c1	-6%
79	Cn1c(=O)c2[nH]c(CCCCc3nc4c([nH]3)c(=O)n(C)c(=S)n4C)nc2n(C)c1=S	-5%
80	CN(C)CCNS(=O)(=O)c1ccc(Cl)cc1	-15%

(next part)
cpd	compound	HPGD block
81	C/C(CC(=O)NC1CCCC1)=N\NC(=O)Cc1cccs1	-1%
82	CC1CCc2[nH]nc(C(=O)O)c2C1 (configuration not stated)	-8%
83	Cc1ccc(Nc2nc(N)c([N+](=O)[O-])c(N3CCOCC3)n2)cc1C	-20%
84	Cc1ccc2nc3ccc(N4CCCC4)nn3c(=O)c2c1	-15%
85	Cn1c(=O)c2c(nc(NCCCN3CCOCC3)n2Cc2ccc(Cl)cc2Cl)n(C)c1=O	-1%
86	NC(=O)CSc1nc(O)cc(=O)n1-c1ccccc1	-10%
87	CCCC(=O)NCc1cc(-c2nn(C)c(=O)c3ccccc23)ccc1C	18µM*
88	Cn1c(=O)c2c(nc(SCC(=O)NCC3CCCO3)n2C)n(C)c1=O (configuration not stated)	-15%

Compounds from the list above containing bromine (three):
cpd	compound	HPGD block
3	COc1c(C)cc(Br)cc1C(=O)O	-6%
17	NC(=O)c1ccc(Br)c(S(=O)(=O)N2CCCCC2)c1	-1%
76	Cc1cc(SCC(=O)NN=C2CCN(C(C)C)CC2)c(C)cc1Br	25µM*

Other records:
cpd	compound	HPGD block
89	COC(=O)N[C@H](C[N+](=O)[O-])C(C)(C)C	-1%
90	COc1ccc(S(=O)(=O)Nc2ccc(CC#N)cc2)cc1	-2%
91	Cc1ccc(OCCn2cc(/C=C(\C#N)C(=O)NCC3CCCO3)c3ccccc32)cc1 (configuration not stated)	-17%
92	Nc1nnc(SCCN2C(=O)c3ccccc3C2=O)s1	-8%
93	CCn1c(SCC(=O)N/N=C/c2ccc(OC)c(OC)c2)nc2ccccc21	-8%
94	Cc1ccc(C2c3sc(=O)[nH]c3SC3C4CC(C5C(=O)N(C(C)C(=O)O)C(=O)C45)C23)cc1 (configuration not stated)	-2%
95	Cc1c(C(=O)OCCOC(C)C)[nH]c2c1C(=O)CC(c1ccco1)C2 (configuration not stated)	-10%
96	O=C(CC1(O)C(=O)Nc2cc(Cl)cc(Cl)c21)c1ccncc1 (configuration not stated)	-12%

(more compounds)
cpd	compound	HPGD block
97	CCOc1ccccc1N=c1oc2cc(O)ccc2cc1C(=O)NCC1CCCO1 (configuration not stated)	?
98	CC12C=CC3(O1)C(C(=O)N(c1cccnc1)C3C(=O)NC1CCCCC1)C2C(=O)Nc1ccccc1 (configuration not stated)	-8%
99	CCOc1ccc(S(=O)(=O)NC(C)(C)C)cc1-c1nc2c(C(C)(C)C)nn(C)c2c(=O)[nH]1	-18%
100	Cn1c(=O)[nH]c(=O)c2c1nc(N1CCN(Cc3ccccc3)CC1)n2CCCc1ccccc1	-12%
101	COc1ccc(C)cc1S(=O)(=O)Nc1ccc(F)c(Cl)c1	28µM*
102	O=C(CN(CC1CCCO1)C(=O)CNS(=O)(=O)c1ccccc1)NCc1ccccc1 (configuration not stated)	-5%
103	O=S(=O)(c1cccc(-c2nnc(SCc3nc4ccccc4s3)o2)c1)N1CCOCC1	-19%
104	COc1cccc(-n2c(COc3ccc(C)cc3)nnc2SCC(=O)O)c1	25µM*

The list goes on:
cpd	compound	HPGD block
105	O=C(Nc1ccc2c(c1)OCCO2)c1cc(-c2ccccc2)nc2ccccc12	0%
106	Nc1nc(SCC(=O)N2CCCc3ccccc32)n(-c2ccccc2)n1	-6%
107	CCOC(=O)C1=C(C)NC(C)=C(C(=O)OCC)C1C(=O)OCC(=O)N1CCC(C)CC1	-11%
108	COc1ccccc1-c1cncnc1NCCc1cnc[nH]1	-16%
109	O=C(O)c1cccc(C(=O)Nc2cccc(NC(=O)C3CCCO3)c2)c1 (configuration not stated)	-8%
110	O=C(O)CCCCCNC(=O)c1ccccc1	0%
111	Cc1cccc(C(=O)NC(=S)NCc2cccnc2)c1	-5%
112	O=C(NCc1cccs1)c1ccc(CS(=O)(=O)c2ccc(Cl)cc2)o1	-8%

(list continues)
cpd	compound	HPGD block
113	COc1ccc(Oc2ncc3nc(-c4cccs4)c(=O)n(-c4ccccc4)c3n2)cc1	-10%
114	Cc1ccc2nc(-c3ccco3)c(Nc3ccccc3)n2c1	?
115	CC(C)C(=O)Nc1cccc(-c2cnc3ccccc3n2)c1	-7%
116	CCc1ccc(NC(=O)N(C2CCC(C)CC2)C2CCN(C(C)=O)CC2)cc1 (configuration not stated)	-19%
117	CCCn1nnnc1SCC(=O)NCc1ccc(OC)cc1	-4%
118	CNC(=S)N/N=C(\C)c1ccc(Cl)s1	-9%
119	CCOC(=O)N1CCN(C(=O)COc2ccccc2Cl)CC1	-10%
120	C=CCn1c(SCc2csc(C)n2)nc2sc3c(c2c1=O)CCCC3	-14%

Carrying on.
cpd	compound	HPGD block
121	O=c1[nH]c2ccsc2c(=O)n1-c1ccc(F)c(Cl)c1	-10%
122	CN(CC(=O)N1CCc2ccccc21)S(=O)(=O)c1ccc(Br)s1	-9%
123	O=C(COC(=O)c1cc2c(s1)CCCC2)Nc1ccc(Cl)cn1	-2%
124	COC(=O)c1[nH]c2cccc(OC)c2c1NC(=O)CCN1CCC(C)CC1	-28%
125	COCCNCCOc1ccccc1-c1ccccc1	1%
126	CC(=O)N1CCC2(CC1)CN(Cc1cc(C(F)(F)F)cc(C(F)(F)F)c1)C2	?

These rows are one share of the data. The share of hits here may be higher or lower than overall.
